VACV mCherry inh: qHTS for Stage-Specific Inhibitors of Vaccinia Orthopoxvirus: mCherry Reporter Primary qHTS; Vaccinia virus mCherry reporter infection, fluorescence; about a quarter of the inactives have no number; Potency, µM (top dose mostly 36.5 µM), for the others: at the top dose activity change, negative = inhibition, hits mostly inhibitors; hit rate 0.63% among 310,000; AID 720579, 2013; active = well fitted inhibition curve with a large enough effect; inconclusive = small, poorly fitted or top-dose-only effect; inactive = no such curve, though single readings can be large or run the other way; tested in A549 cells; further: nearly all actives have a fitted effect of over 35% in size; inactives centre near -10
Vaccinia Venus: qHTS for Stage-Specific Inhibitors of Vaccinia Orthopoxvirus: Venus Reporter Primary qHTS; Vaccinia virus Venus reporter expression, fluorescence; Potency, µM (highest dose often 36.5 µM), inactives show at the highest dose activity change, negative = inhibition, usual class: inhibitors; hit rate 0.46% among 330,000; active means well fitted inhibition curve with a large enough effect; inconclusive means small, poorly fitted or top-dose-only effect; inactive means no such curve, though single readings can be large or run the other way; tested in A549 cells; further: nearly all actives have a fitted effect of over 30% in size; inactives centre near -10
* marks the source's active call; other numbers are inactive results; i = inactive; ? = inconclusive; · = not tested or not shown; & = joins results of further samples; [ ] = remark or other dose. On the % scale 0 is the no-effect control and ±100 the full control effect; potency means the concentration at half of the fitted maximal effect.

compound,VACV mCherry inh,Vaccinia Venus
Cn1c(C(=O)NCc2ccccn2)cc2c(=O)n(C)c3ccccc3c21,-13%,-6%
COc1ccc(-c2sc3ccc(OC)cc3c2C#Cc2cncn2C)cc1,?,?
O=S(=O)(Nc1cccc2nsnc12)c1ccccc1,-4%,-8%
N#Cc1ccc(C(=O)NC23CC4CC(CC(C4)C2)C3)cc1,-3%,-18%
COCCNC(=S)Nc1cc(OC)c(NC(=O)c2ccco2)cc1OC,-20%,-8%
COc1ccc(S(=O)(=O)N2CCN(Cc3ccc4c(c3)OCO4)CC2)c2ccccc12,5%,-5%
Oc1c(C=Nc2ccccc2)sc(=S)n1Cc1ccccc1,-21%,-3%
Cc1ccc(-n2cc(-c3ccccc3)c3c(=O)[nH]cnc32)cc1,?,-24%
O=C(COc1ccc2c3c(c(=O)oc2c1)CCCC3)NCCN1CCOCC1,-5%,-8%
C[C@H](CO)N1C[C@H](C)[C@@H](CN(C)Cc2ccc(C(=O)O)cc2)Oc2c(NC(=O)C3CC3)cccc2C1=O,2%,-1%
O=C(N[C@@H]1CC[C@@H](CCn2cc(-c3ccccc3)nn2)O[C@@H]1CO)c1cnccn1,3%,-5%
CCc1ccc(OCC(=O)N(Cc2ccc(C)cc2)Cc2ccco2)cc1,-16%,-15%
CN(Cc1ccccc1)S(=O)(=O)c1ccc(NC(=S)NC(=O)C(C)(C)C)cc1,-20%,0%
NNC(=O)c1cc2sccc2s1,?,-24%
CCOc1ccc(S(=O)(=O)N(C(=O)c2ccco2)c2cc3sc(=O)oc3c3ccccc23)cc1,-16%,-5%
CC1(C)CC(=O)C(C=NCC2CCN(C(=S)Nc3ccccc3)CC2)=C(O)C1,i,-3%
CCCCCCCn1ccc(=N)cc1,·,?
C=C1[C@@H](C)[C@H]2[C@H](Cc3ccccc3)NC(=O)[C@]23OC(=O)/C=C/[C@H](O)CCC[C@@H](C)C/C=C/[C@H]3[C@@H]1O,?,-11%&-13%
COc1ccccc1Cc1nc2ccccc2nc1SCC(=O)N1CCN(c2ccccc2)CC1,-20%,-19%
O=C(c1ccc(C(F)(F)F)cc1)C1CCCN(C(=O)c2cnccn2)C1 (stereo unspecified),i,-6%

Sorted by length of the SMILES (descending): five of the compounds above
compound,VACV mCherry inh,Vaccinia Venus
COc1ccc(S(=O)(=O)N2CCN(Cc3ccc4c(c3)OCO4)CC2)c2ccccc12,5%,-5%
COc1ccccc1Cc1nc2ccccc2nc1SCC(=O)N1CCN(c2ccccc2)CC1,-20%,-19%
O=C(c1ccc(C(F)(F)F)cc1)C1CCCN(C(=O)c2cnccn2)C1 (stereo unspecified),i,-6%
COc1ccc(-c2sc3ccc(OC)cc3c2C#Cc2cncn2C)cc1,?,?
NNC(=O)c1cc2sccc2s1,?,-24%

2 entries drawn at random from the list so far, as already listed:
compound,VACV mCherry inh,Vaccinia Venus
O=C(N[C@@H]1CC[C@@H](CCn2cc(-c3ccccc3)nn2)O[C@@H]1CO)c1cnccn1,3%,-5%
Cc1ccc(-n2cc(-c3ccccc3)c3c(=O)[nH]cnc32)cc1,?,-24%

Next section
compound,VACV mCherry inh,Vaccinia Venus
CC(C)NC(=O)NC(=O)CSc1nnc(-c2c[nH]c3ccccc23)o1,-3%,-18%
CC(C)N1CCNCC1,i,-13%
COC(=O)c1nnn(-c2nc(N(C)C)nc(N(C)C)n2)c1C,0%,-13%
O=C(CN1C(=O)NC2(CCc3ccccc32)C1=O)NCC(F)(F)F (stereo unspecified),-10%,9%
Cc1cccc(C)c1NC(=O)CN(C)C(=O)c1cc(S(=O)(=O)N(C)C)ccc1N1CCCC1,-1%,-20%
CCCN(CCC)c1nn2c(=O)c(C(=O)NCc3cccc(OC)c3)cnc2s1,i,-16%
COc1cc(OC)cc(C(=O)N[C@@H](CCSC)c2nc3ccccc3[nH]2)c1,i,-15%
Cc1cccc(NC(=O)CN2C(=O)c3ccccc3Sc3ncccc32)c1C,-13%,-11%
O=C(NCc1ccccc1Cl)c1ccc(NC(=O)N2CCCCc3ccccc32)cc1,-6%,-14%
O=C(O)CCc1ccc(-c2cccs2)n1NC(=O)c1ccco1,·,-14%
CN1CCN(CCCNC(=O)c2ccc3c(=O)n(CCc4ccccc4)c(=O)[nH]c3c2)CC1,0%,-10%
N#CC12CCCCC1CC1CCCCC1(C#N)N2Cc1ccccn1 (stereo unspecified),·,-19%
COCCCN1C(=O)c2ccc(C(=O)OCC(=O)NCc3cccc(OC)c3)cc2C1=O,-11%,-6%
Fc1cccc(F)c1-c1nc(-c2ccncc2)no1,-9%,-4%
c1coc(CNc2nc(NCc3ccco3)c3ccccc3n2)c1,?,?
CCC(C)N(C(=O)COC(=O)c1cc([N+](=O)[O-])ccc1N1CCOCC1)C1CCS(=O)(=O)C1 (stereo unspecified),-14%,-5%
Cc1ccc(S(=O)(=O)N(C)C[C@H]2OCCCC[C@@H](C)Oc3ccc(N(C)C)cc3C(=O)N([C@H](C)CO)C[C@@H]2C)cc1,-21%,-20%
COc1ccc(C(C(=O)NC(C)(C)C)n2c(=O)c(-c3ccco3)nc3ccccc32)cc1 (stereo unspecified),i,-13%
O=C1c2ccccc2C(=O)N1CCc1c(-c2ccccc2)[nH]c2ccccc12,?,-18%
COc1ccc(OC)c(C2=NOC(C(=O)Nc3cccnc3)C2)c1 (stereo unspecified),-15%,-14%
CCc1cccc(NC(=O)COC(=O)c2cc([N+](=O)[O-])ccc2N2CCOCC2)c1,-2%,-22%
CCOC(=O)c1ccccc1NC1c2ccccc2C(=O)N1C1CCN(C(=O)OCC)CC1 (stereo unspecified),-22%,-8%
C/C(=C1/C=Nc2ccccc21)c1ccc(N(C)C)cc1,20%,-15%
O=S(=O)(NCC(O)c1ccccc1)c1cc(Cl)sc1Cl (stereo unspecified),-21%,-7%
Cc1ccc(S(=O)(=O)N/N=C/c2ccc(OC3CSC3)cc2)cc1,-12%,?
Cc1nn2c(=O)cc(CSc3ccccc3NC(=O)c3ccccc3F)nc2s1,-7%,0%
O=C(N/N=C/c1c[nH]c2ccccc12)c1ccncc1,-1%,-4%
CCN(CC(=O)Nc1c(F)cccc1F)C(=O)Cc1cccs1,-2%,-9%
COc1ccc(NC(=O)CSc2nc3[nH]ncc3c(=O)n2-c2ccccc2C)cc1OC,i,-8%
COC(=O)c1c(C#N)c(N)nc2c1CCC2,·,-9%
Cc1ccc(NC(=O)COC(=O)c2ccccc2OCC(=O)Nc2ccc(Br)cc2)c(C)c1,-12%,-7%
CCOC(=O)c1[nH]ncc1CN1CCCC(C(=O)c2cccc(OC(C)C)c2)C1 (stereo unspecified),-14%,-14%
CS(=O)(=O)Nc1c(O)ccc2c1CCCC2C1=NCCN1 (stereo unspecified),-22%,-12%
NS(=O)(=O)c1ccc(CCNC(=O)COC(=O)CCc2ccccc2)cc1,0%,-13%
COC(=O)C1C(c2ccc(OC)c(OC)c2)NC(c2ccc(OC)c(OC)c2)C(C(=O)OC)S1(=O)=O (stereo unspecified),-4%,-3%
CN1C(=O)N(C)C(=O)C2(Cc3ccccc3N3CCCC32)C1=O (stereo unspecified),i,7%
Cc1[nH]c2ccccc2c1CCN,-11%,-10%
Cc1cc(N(CCCl)CCCl)ccc1C=Cc1ccncn1,?,45%[activator]
COc1ccc(OCCSc2nc(-c3ccccc3)cc(=O)[nH]2)cc1,-12%,10%
CCNc1oc(-c2cccc3ccccc23)nc1C#N,-25%,-21%
COc1cccc(-n2c(C)cc(/C=C3/C(=N)N4C(=NC3=O)SN=C4S(C)(=O)=O)c2C)c1,-2%,11%
COc1ccccc1NC(=O)CSc1nnc2ccc(-c3cccnc3)nn12,i,-1%
CC1(C(=O)Nc2ccc(F)c(Cl)c2)Cc2c(-c3ccc(C(N)=O)cc3)ccnc2O1 (stereo unspecified),-25%,-26%
COc1ccccc1-c1noc(CSc2nnc(Cc3ccccc3)n2-c2ccc(C)c(C)c2)n1,-12%,-15%
O=C1NC[C@@H](CCCCN2C[C@H](Cc3ccc(O)cc3)N(CCC3CCCCC3)C(=O)C2=O)N(CCc2ccc(O)cc2)C1=O,51%[activator],11%
Cc1cc(C)cc(OCC(=O)N2Cc3ccccc3CC2C(=O)O)c1 (stereo unspecified),-12%,-18%
Cn1c(=O)oc2cc(S(=O)(=O)CCC(=O)N3CCN(c4ccccc4F)CC3)ccc21,-12%&-2%,-16%&0%
O=c1c(Cl)c(NCc2ccccc2)cnn1C12CC3CC(CC(C3)C1)C2,-22%,-23%
N#Cc1nnn(Cc2ccccc2)c1N,i,1%
COc1ccc(NC(=O)CSc2nc3c(c(=O)n2-c2ccccc2)SCC3)c(OC)c1,-8%,-1%
Cc1ccc(C[n+]2ccccc2)cc1,i,-26%
Cc1ccc(CNC(=O)c2c[nH]c3ccc(S(=O)(=O)Nc4ccc(C(C)C)cc4)cc3c2=O)cc1,-6%,-11%
Cc1ccc(-c2nsc(SCC(=O)NCc3ccc4c(c3)OCO4)n2)cc1,-2%,-14%
COc1ccc(C(=O)OCC(=O)NC(Cc2ccccc2)C(C)=O)cc1S(=O)(=O)N1CCCC1 (stereo unspecified),i,-16%
Cn1cnc(S(=O)(=O)N2CCC(C(=O)Nc3ccc(F)cc3F)CC2)c1,-7%,-7%
Cc1ccccc1Cn1nnc(-c2ccc(C(=O)O)cc2)n1,6%,4%
O=C(O)c1ccc(COc2ccc3c4c(c(=O)oc3c2)CCC4)o1,-14%,-13%
CCCOc1cccc(C(=O)NCCNC(=O)c2cnccn2)c1,-16%,-2%
CC(/C=C/c1ccccc1F)=N\NC(=O)C(C)C,i,-10%
CCOCCCNC(=O)c1ccc2c(c1)ncn2C1CCCC1,i,-1%

The results go on.
compound,VACV mCherry inh,Vaccinia Venus
CSC1=NC(C(Cl)(Cl)Cl)N=C(c2ccccc2)N1 (stereo unspecified),-28%,-14%
NC(=O)CC(NC(=O)c1ccc(Br)cc1)c1ccc(NC2CCCCCCC2)c([N+](=O)[O-])c1 (stereo unspecified),?,?
COc1cc2c(NC3CCN(C)CC3)nc(N3CCCN(C)CC3)nc2cc1OCCCCN(C)C,?,10µM*
COc1ccc(S(=O)(=O)NCc2cn3c(C)csc3n2)cc1F,i,-5%
CC(C)c1ccc(C(=O)N/N=C/c2cccc(Cl)c2Cl)cc1,i,-9%
CN(C)C(CNC(=O)C1CCN(C(=O)/C=C/c2ccccc2)CC1)c1ccccc1 (stereo unspecified),i,-15%
CC(=O)c1c(C)[nH]c(C(=O)OCC(=O)C(C)(C)C)c1C,-11%,1%
Cc1cc(=O)[nH]c(N/N=C/c2c(C)nn(-c3ccccc3Cl)c2Cl)n1,i,0%
Cc1ccc(Cn2cc(CN3CC(N4CCN(CCN(C)C)CC4)CS3(=O)=O)nn2)cc1 (stereo unspecified),-4%,-2%
Cn1c(-c2cccs2)nc2ccccc21,-2%,-6%
CCOc1cc(/C=N/NC(=O)CN2CCCCC2)ccc1OCc1ccc(Cl)cc1,i,-12%
CC(C)(C)C1CCC2(CC1)Nc1cccc3cccc(c13)N2,-4%,-6%
Cc1ccccc1-n1c(SCC(N)=O)nc2sc(-c3ccccc3)cc2c1=O,·,?
Cc1ccc(NCCC(=O)c2ccc(Cl)c(Cl)c2)cc1,-19%,-16%
O=C(Nc1ccc(O)cc1)c1ccc2c(c1)C(=O)N(Cc1ccccc1)C2=O,-19%,-15%
O=C(CSc1ccc(C(F)(F)F)cc1[N+](=O)[O-])NCCOc1ccccc1,-24%,-29%
CCOc1cc(CNc2ccc(CNc3ncn[nH]3)cc2)ccc1OCc1ccccc1,-2%,-22%
Cc1cc(C)n2cc(CSc3nnnn3C)nc2n1,·,-7%
COc1ccccc1N1CCN(c2c(CN3CCCC3)c(=O)oc3ccccc23)CC1,-17%,-7%
COc1cccc(C2CC(=O)NC(SC)=C2C#N)c1 (stereo unspecified),i,-18%
CCN1CCN(C(=O)c2ccc(CSc3ccc(C)cc3)cc2)CC1,-23%,-22%
O=C(NCCCn1ccnc1)c1cccc(Br)c1,i,-8%
CC(NS(=O)(=O)c1ccc(Cl)cc1)C(=O)NCc1ccco1 (stereo unspecified),4%,-3%
COc1ccc(CCNCc2sccc2C)cc1OC,-27%,-15%
Cc1ccc(S(=O)(=O)NCCC2=CCCCC2)cc1,-7%,-17%
COc1ccc2c(c1OC)C(=O)OC2C/C(=N\NC(N)=O)c1ccccc1 (stereo unspecified),i,-3%
COc1cc(OC)cc(-c2sc3ccc(OC)cc3c2C#CCO)c1,?,?
Cc1ccc(Cl)cc1NC(=O)c1ccc2nc(CCc3ccccc3)oc2c1,-10%,-7%
Cc1cccc(C)c1NC(=O)CSc1nnc(C)c(=O)[nH]1,i,-8%
O=C(Nc1nnc(S(=O)(=O)N2CCCCCC2)s1)c1cccc(Br)c1,?,?
CCCCN(C(=O)C(C)Oc1cccc(Cl)c1)c1c(N)n(CCC)c(=O)[nH]c1=O (stereo unspecified),-12%,-7%
